Compound activity as filed in PubChem BioAssay.
GIV Gai3 FP: inhibitors of GIV peptide binding to Galpha-i3, primary screen, biochemical, fluorescence polarization, FITC-GIV GBA peptide, rat Galphai3; Guanine nucleotide-binding protein G(i) subunit alpha-3 (Rattus norvegicus), P08753; 90 min; stronger effect = lower value; scaled: aluminum fluoride 0%, vehicle 100%; percent of control (FP), % (no concentration beside the values); 0.42% of 210,000 active; AID 1224905, 2016;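 active = replicate mean at 85% of control or lower, very high polarization wells dropped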;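 also: wells of about 15 µL received 100 nL stock; the first replicate is given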
Target sequence (P08753 whole entry, looked up): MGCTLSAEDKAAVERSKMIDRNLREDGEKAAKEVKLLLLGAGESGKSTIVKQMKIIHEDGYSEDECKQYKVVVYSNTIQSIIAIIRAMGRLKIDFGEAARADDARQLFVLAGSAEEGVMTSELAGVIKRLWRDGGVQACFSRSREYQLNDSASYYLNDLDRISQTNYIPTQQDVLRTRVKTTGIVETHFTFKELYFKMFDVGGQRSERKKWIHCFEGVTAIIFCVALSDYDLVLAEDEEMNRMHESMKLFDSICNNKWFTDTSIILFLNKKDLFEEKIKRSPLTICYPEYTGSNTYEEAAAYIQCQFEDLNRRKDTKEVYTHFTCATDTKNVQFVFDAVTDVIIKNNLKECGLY
Starred values were filed as active, the others as inactive. The list is partial, so the mix of outcomes need not match the whole.

compound	GIV Gai3 FP
Cc1nn(-c2ccc(F)cc2)c2sc(C(=O)NC(C)C)cc12	106
O=C(Nc1ccc(N2CCOCC2)cc1)c1cccc(-c2cc(NC3CCCCC3)ncn2)c1	107
O=C1c2ccccc2C(=O)N1CC1c2ccccc2CCN1S(=O)(=O)c1cccc([N+](=O)[O-])c1 (configuration not stated)	108
COc1ccc(C(=O)COC(=O)C(Cc2c[nH]c3ccccc23)NC(=O)c2ccc(Br)cc2)cc1 (configuration not stated)	105
COc1ccc(C2C(C#N)=C(N)Oc3n[nH]c(C)c32)cc1Cn1nnc2ccccc21 (configuration not stated)	102
COc1ccc(CCN2C(=O)C3C4c5ccccc5C(C)(c5ccccc54)C3C2=O)cc1OC (configuration not stated)	115
Nc1nc(CSc2nnnn2-c2ccc(F)c(Cl)c2)nc(N2CCOCC2)n1	107
COc1ccc(OC)c(C2/C(=C(\O)c3ccccc3)C(=O)C(=O)N2c2nc3ccccc3s2)c1 (configuration not stated)	101
O=c1/c(=C/c2ccc(O)cc2)sc2n1C(c1ccccc1)C(c1ccccc1)=NN=2 (configuration not stated)	107
COc1ccc(CCNC(=O)CCn2c(SCC(=O)Nc3cc(C)on3)nc3ccccc3c2=O)cc1OC	119
COc1ccc(C2CC(=O)NC(SCC(=O)Nc3cccc(Cl)c3)=C2C#N)cc1OC (configuration not stated)	104
CCOc1ccccc1-n1c(=S)sc2c(=O)n(-c3ccccc3F)c(=S)[nH]c21	107
Cc1ccc(-c2noc(-c3nn(-c4cccc(F)c4)ccc3=O)n2)cc1	103
CC1(C)CC(=O)C2=C(C1)c1c(ccc3ncccc13)NC2c1ccc(Cl)cc1 (configuration not stated)	106
CCOc1ccc(C2C(N3C(=O)c4ccccc4C3=O)C(=O)N2c2ccc(Br)c(C)c2)cc1 (configuration not stated)	115
CCCCOc1ccc(C2Nc3ccccc3C(=O)N2c2ccc(F)c(Cl)c2)cc1 (configuration not stated)	100
COc1ccc(OC)c(NC(=O)CSc2nc3ccccc3c(=O)n2NC(=O)CCc2c[nH]c3ccccc23)c1	112
CCCc1ccc(S(=O)(=O)Nc2ccc3nncn3n2)cc1	103
O=C(c1ccccc1Cl)N1CCN=C1N1CCCC1	104
O=C(CCc1nc(CSc2nnc(-c3ccncc3)o2)no1)Nc1ccc(Cl)cc1F	100
Cn1cnc2c(-c3cccc(Cl)c3)csc2c1=O	109
CCOC(=O)c1ccc(N2C(=O)C3C4C=CC(CC4)C3C2=O)cc1 (configuration not stated)	110
C/C(O)=C1/C(=O)NC23CCN(C)CC2C1c1ccccc1O3 (configuration not stated)	103
Cc1ccc(-c2noc(C(=O)N3CCOCC3)n2)cc1S(=O)(=O)N1CCc2ccccc2C1	97
O=S(=O)(Nc1cccc(-c2nnc(-c3ccccc3)o2)c1)c1ccc(Cl)cc1	102
O=C(NCc1ccccc1Cl)c1cccc(Oc2cc(-c3cccc(F)c3)ncn2)c1	98
CC(C)Cn1c(=O)c(-c2ccc(C(=O)Nc3ccc4c(c3)OCCO4)cc2)nc2ccccc21	97
CCCS(=O)(=O)c1c(S(=O)(=O)CCC)c2ccccn2c1C(=O)N/N=C/c1cc(OC)c(OC)c(OC)c1	104
Cc1ccc(-c2nc(CSCC(=O)NC3CCCCC3)no2)cc1	99
O=C1C(=O)N(c2cccc(C(F)(F)F)c2)C(c2ccc(Br)cc2)/C1=C(/O)c1ccccc1 (configuration not stated)	112
Cc1cccc(CNC2=NCCNC23CCN(S(=O)(=O)c2ccccc2C)CC3)c1	102
O=C1C2C3c4ccccc4C(c4ccccc43)C2C(=O)N1CN(C(=O)C(F)(F)F)c1ccc(Cl)c(Cl)c1 (configuration not stated)	109
O=C(c1ccc2ccnc(N3CCN(c4ccccc4F)CC3)c2c1)N1CCCCC1	104
Cc1cc(N2CCOCC2)n2nc(CN3CCN(CC(C)C)CC3)nc2n1	104
COc1ccccc1CNS(=O)(=O)c1cc(-c2nc(C)c(C)s2)sc1C	104
CCN(CC)c1ncnc2sc(C(=O)N3CCCc4ccccc43)c(C)c12	114
O=C1NC2(CCN(C(=O)C3CC3)CC2)Oc2ccccc21	102
CCc1noc(-c2c(C)[nH]c(C)c2S(=O)(=O)N2CCOCC2)n1	102
Cc1nc(CNC(=O)[C@H]2CSCN2C(=O)Cc2ccc(F)cc2)cs1	101
CCOc1ccc(NC(=O)CSc2nc(NCc3ccc(Cl)cc3)c3ccccc3n2)cc1	104
CN(C)C(=O)C1CC(=O)N(C2CCCCC2)C1 (configuration not stated)	101
COc1cc(C2C(N3C(=O)c4ccc([N+](=O)[O-])cc4C3=O)C(=O)N2c2cc(Cl)cc(Cl)c2)cc(OC)c1OC (configuration not stated)	101
CCOC(=O)C1=C(C)NC2=C(C(=O)C(C(=O)OCC)C(c3ccccc3OC)C2)C1c1ccccc1Cl (configuration not stated)	98
COc1ccc2[nH]cc(CCN3C(=O)C4CCCCC4C3=O)c2c1 (configuration not stated)	97
COc1cccc(N2CC(NC(=O)Nc3nc4c(C)cccc4s3)CC2=O)c1 (configuration not stated)	109
Cc1ccc2c(c1)Oc1ccc(S(=O)(=O)N3CC(C)OC(C)C3)cc1C(=O)N2 (configuration not stated)	105
CCC(C)(C)NS(=O)(=O)c1cc(-c2nc(C)c(C(=O)N3CCCC3)s2)cs1	101
CCOC(=O)c1nnn(-c2nonc2N)c1CSc1nc2ccc(OCC)cc2s1	110
CCN(CC)c1ccc(/C=c2\sc3nnc(-c4ccc(C)cc4)n3c2=O)cc1	122
CC(C)C12CN3CC(C(C)C)(CN(C1)C3c1ccc([N+](=O)[O-])cc1)C2=O (configuration not stated)	110
CN1C(=O)N(C)C2(c3ccccc3)Nn3c(s/c(=C/c4ccc([N+](=O)[O-])cc4)c3=O)=NC12c1ccccc1 (configuration not stated)	106
Cc1noc(COC2CCCN(S(=O)(=O)c3c(C)noc3C)C2)n1 (configuration not stated)	103
Cc1ccc(S(=O)(=O)Nc2cccc(C(=O)N3CCC(C(=O)NCCC(C)C)CC3)c2)cc1C	106
Cc1ccc(CNC(=O)C2CCCN(c3nn4c(=O)c5c(nc4s3)CCCC5)C2)cc1 (configuration not stated)	100
O=C(NCc1ccco1)/C(=C\c1cccc([N+](=O)[O-])c1)NC(=O)c1ccccc1	103
O=C(c1nc(-c2csc(S(=O)(=O)NC3CC3)c2)no1)N1CCOCC1	99
CCC(C)NS(=O)(=O)c1ccc2c(c1)N(Cc1noc(C)n1)C(=O)CO2 (configuration not stated)	107
CCc1ccc(S(=O)(=O)N2CCCC2c2cc(C(C)C)no2)cc1 (configuration not stated)	109
Cc1ccc(C(O)(C(=O)NN(C(=O)c2ccc(Br)o2)c2ccccc2)c2ccc(C)cc2)cc1	102
COCCNC(=O)CSc1nc2sc3c(c2c(=O)n1-c1ccccc1)CCCC3	108

Nothing new here: an excerpt of the list.
compound	GIV Gai3 FP
CN(C)C(=O)C1CC(=O)N(C2CCCCC2)C1 (configuration not stated)	101
COc1cc(C2C(N3C(=O)c4ccc([N+](=O)[O-])cc4C3=O)C(=O)N2c2cc(Cl)cc(Cl)c2)cc(OC)c1OC (configuration not stated)	101
CCOC(=O)C1=C(C)NC2=C(C(=O)C(C(=O)OCC)C(c3ccccc3OC)C2)C1c1ccccc1Cl (configuration not stated)	98
COc1ccc2[nH]cc(CCN3C(=O)C4CCCCC4C3=O)c2c1 (configuration not stated)	97
COc1cccc(N2CC(NC(=O)Nc3nc4c(C)cccc4s3)CC2=O)c1 (configuration not stated)	109
Cc1ccc2c(c1)Oc1ccc(S(=O)(=O)N3CC(C)OC(C)C3)cc1C(=O)N2 (configuration not stated)	105

Other structures follow.
compound	GIV Gai3 FP
CCOC(=O)c1sc(=S)n(-c2ccc(Br)cc2)c1N	102
Cc1cc2c(cc1C)CSC(c1c(O)ccc3cc([N+](=O)[O-])ccc13)SC2	104
COc1cc(C2NC(=O)NC(C)=C2C(=O)OC2CCCCCC2)cc(OC)c1OC (configuration not stated)	104
COc1ccc(CSc2nccc3c2ccn3CC(=O)NCc2ccc(OC)c(OC)c2)cc1	100
O=C(NCc1ccco1)/C(=C/c1ccco1)NC(=O)c1ccc(Br)cc1	109
Cc1ccc(S(=O)(=O)Nc2ccc3c(c2)nc(-c2ccc(C(=O)NC(C)C)cc2)n3C)cc1	103
N#Cc1c(-c2cccs2)cc(-c2ccccc2)nc1SCC(N)=O	111
CN1C(=O)C2(CCN(C(=O)CC(C)(C)C)C2)c2ccccc21 (configuration not stated)	98
COC(=O)C(Cc1c[nH]c2ccccc12)NC(=O)C(c1ccccc1)c1ccccc1 (configuration not stated)	106
COc1ccc(-c2nn(-c3ccccc3)cc2/C=N\NC(=O)c2ccncc2)cc1OC	109
CCc1cccc(C)c1NS(=O)(=O)c1cc(-c2nc(C)c(C)s2)sc1C	100
CC1=C(C(=O)OC2CCCCC2)C(c2cccc(Cl)c2Cl)CC(=O)N1 (configuration not stated)	118
CCn1c(CN(C)C(=O)NCC(C)C)nc2cc(C(=O)N(C)C)ccc21	97
COc1cc(-c2nc(Cn3ccnc3)no2)cc(OC)c1OC	107
CCN1/C(=c2/sc(=C3C(=O)c4ccccc4C3=O)n(CC)c2=O)C=Cc2ccccc21	107
CCn1cnc2cc(-c3noc(CCc4c[nH]c5ccccc45)n3)ccc21	102
Cc1cc(C)c(S(=O)(=O)Nc2cccc(C(=O)N3CCCC3C(=O)NCC3CCCO3)c2)cc1C (configuration not stated)	111
CCCc1cc(C2CCCN2S(=O)(=O)c2ccc(Br)cc2)no1 (configuration not stated)	95
O=C(Nc1cc(C(F)(F)F)ccc1Cl)c1cc(S(=O)(=O)N2CCC3(CC2)OCCO3)ccc1F	113
Cc1csc(NC(=O)Cn2c(=O)n(C(C)C)c3ccc(-c4noc(C)n4)cc32)n1	99

Quoted at random: three entries already listed.
compound	GIV Gai3 FP
CCOc1ccc(C2C(N3C(=O)c4ccccc4C3=O)C(=O)N2c2ccc(Br)c(C)c2)cc1 (configuration not stated)	115
CCn1cnc2cc(-c3noc(CCc4c[nH]c5ccccc45)n3)ccc21	102
Cc1ccc(S(=O)(=O)Nc2cccc(C(=O)N3CCC(C(=O)NCCC(C)C)CC3)c2)cc1C	106

(list continues)
compound	GIV Gai3 FP
CCOCCCn1c(=S)[nH]c2cc(C(=O)N3CCN(Cc4ccc5c(c4)OCO5)CC3)ccc2c1=O	114
O=C(c1csc(-c2cccnc2)n1)N1CCN(c2ccccn2)CC1	108
C=CCOc1c(Cl)cc(C2C(C(=O)OCC)=C(C)NC3=C2C(=O)c2ccccc23)cc1OC (configuration not stated)	116
O=C1NC(c2ccc(Cl)c(Cl)c2)Sc2ccccc21 (configuration not stated)	107
CC1CC(C)CN(C(=O)c2c[nH]c3ccc(S(=O)(=O)N(C)c4ccc(Br)cc4)cc3c2=O)C1 (configuration not stated)	102
CCOc1c(OC)cc(C2C(C#N)=C(N)Oc3n[nH]c(-c4ccc5c(c4)OCO5)c32)cc1OC (configuration not stated)	102
Cc1cc(=O)n(CC(=O)N2CCc3ccccc32)c(N2CCCC2)n1	101
CCCN1CCN(c2ncnc3sc(C(=O)Nc4ccccc4OC)c(C)c23)CC1	102
COc1ccc(OC)c(N2CC(O)(c3ccc(C)cc3C)[N+]3=C2SCCC3)c1 (configuration not stated)	107
CC(=O)Nc1ccc(-c2noc(C3CCCN(C(=O)c4ccc(C(C)(C)C)cc4)C3)n2)cc1 (configuration not stated)	101
CCCN1C(=O)/C(=c2\sc3nc(-c4ccccc4OC(C)=O)nn3c2=O)c2ccccc21	110
CCOc1ccc(OCC)c(NS(=O)(=O)c2ccc3onc(C(=O)N4CCCC4)c3c2)c1	102
CCOC(=O)C1=C(C)NC2=C(C(=O)C(C(=O)OCC)C(c3cccc(OC)c3)C2)C1c1ccsc1 (configuration not stated)	107
CCc1ccc(-c2csc(Cc3nc(-c4ccccc4)no3)n2)cc1	101
COc1ccc(N2CC(O)(c3ccc(OC(F)F)cc3)[N+]3=C2SCCC3)cc1 (configuration not stated)	115
O=C(Nc1ccc(Br)cc1F)c1ccc2c(c1)OCCO2	102
COc1ccc(C(=O)NCc2ccc3c(c2)N(C(=O)c2ccc(Cl)cc2)CC3)cc1	106
COc1ccc(-c2nc(-c3cccc4ccccc34)[nH]c2-c2ccc(OC)cc2)cc1	105
CCSc1nnc(-c2nn(C)c3c2CN(S(=O)(=O)c2cccc(Cl)c2C)CC3)n1CC	104

Entries listed so far that have an aryl thioether with sulfur outside any ring (ten):
compound	GIV Gai3 FP
Nc1nc(CSc2nnnn2-c2ccc(F)c(Cl)c2)nc(N2CCOCC2)n1	107
COc1ccc(CCNC(=O)CCn2c(SCC(=O)Nc3cc(C)on3)nc3ccccc3c2=O)cc1OC	119
COc1ccc(OC)c(NC(=O)CSc2nc3ccccc3c(=O)n2NC(=O)CCc2c[nH]c3ccccc23)c1	112
O=C(CCc1nc(CSc2nnc(-c3ccncc3)o2)no1)Nc1ccc(Cl)cc1F	100
CCOc1ccc(NC(=O)CSc2nc(NCc3ccc(Cl)cc3)c3ccccc3n2)cc1	104
CCOC(=O)c1nnn(-c2nonc2N)c1CSc1nc2ccc(OCC)cc2s1	110
COCCNC(=O)CSc1nc2sc3c(c2c(=O)n1-c1ccccc1)CCCC3	108
COc1ccc(CSc2nccc3c2ccn3CC(=O)NCc2ccc(OC)c(OC)c2)cc1	100
N#Cc1c(-c2cccs2)cc(-c2ccccc2)nc1SCC(N)=O	111
CCSc1nnc(-c2nn(C)c3c2CN(S(=O)(=O)c2cccc(Cl)c2C)CC3)n1CC	104
